VDR inhibitor: Inhibitors of the vitamin D receptor (VDR): qHTS | Vitamin D3 receptor (Homo sapiens), P11473 | Potency, µM, for inactives: max response, negative = inhibition, hits mostly inhibitors | actives 0.93% (n = 400,000) | VDR-SRC2-3 peptide fluorescence polarization, 2 h; active = well fitted inhibition curve with a large enough effect; inconclusive = small, poorly fitted or top-dose-only effect, or another doubt; inactive = no such curve, though single readings can be large or run the other way; note: series mostly up to about 120 µM
Target sequence (P11473 whole entry, looked up): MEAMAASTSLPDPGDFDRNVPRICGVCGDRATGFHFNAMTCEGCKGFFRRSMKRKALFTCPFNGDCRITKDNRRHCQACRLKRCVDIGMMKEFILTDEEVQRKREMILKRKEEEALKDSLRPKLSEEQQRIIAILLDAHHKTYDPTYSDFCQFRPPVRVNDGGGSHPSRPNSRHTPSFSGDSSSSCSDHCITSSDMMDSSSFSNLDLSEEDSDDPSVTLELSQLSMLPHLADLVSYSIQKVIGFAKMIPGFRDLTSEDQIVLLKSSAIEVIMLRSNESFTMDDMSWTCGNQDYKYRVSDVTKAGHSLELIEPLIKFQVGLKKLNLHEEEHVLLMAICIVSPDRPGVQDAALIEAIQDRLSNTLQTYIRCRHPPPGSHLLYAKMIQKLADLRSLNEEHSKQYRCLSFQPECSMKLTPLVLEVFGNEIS
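Compounds are added to VDR with labelled SRC2-3 coactivator peptide and held 2 h at room temperature. Inhibition of the VDR–peptide interaction is then read as a change in fluorescence polarization.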
The depositor's hits bear a star; u = inconclusive; & = joins results of further samples; [ ] = remark or other dose. % is set by controls: 0 for no effect and ±100 for the full control effect; potency is the fitted concentration of half-maximal effect. Only part of the results is shown (hit frequency here may not be typical).

SMILES	VDR inhibitor
O=c1c(Cc2ccc(F)cc2)c(O)ccn1C1CC1	-15%
CCCCCn1c(N2CCC(Cc3ccccc3)CC2)nc2c1c(=O)[nH]c(=O)n2C	-16%
Cc1ccc(SCC(=O)NCCN2C(=O)CSC2=O)cc1C	-15%
CC(=O)N1CC=CC1(C)C(=O)NCc1cc(F)cc(C(F)(F)F)c1 (stereo not given)	-14%
CCOC(=O)C1(Cc2cccc(OC)c2)CCN(C/C=C/c2ccc(OC)cc2)CC1	4%
CN(C)CCN(C(=O)c1ccc(S(=O)(=O)N2CCCC2)cc1)c1nc2ccc(Br)cc2s1	8%
CC(C)[C@@H](CC(=O)N[C@@H]1CCNC[C@H]1C(=O)N[C@H](CC(=O)N[C@@H](CCC(=O)O)CC(=O)O)Cc1c[nH]c2ccccc12)NC(=O)C[C@H](CO)NC(=O)[C@@H]1CNCC[C@H]1N	11%
CC(CS(=O)(=O)c1ccc2c(c1)NC(=O)CS2)C(=O)NCc1ccccc1Cl (stereo not given)	6%
CC(C)CNC(=O)c1c(-c2ccccc2)c(-c2ccccc2)nn(C)c1=O	15%
Cc1n[nH]c(=O)nc1NCc1ccc(Cl)cc1	9%
COc1ccc2oc(=O)c(C(=O)O)cc2c1	5%
O=C(Nc1ccc(OC(F)(F)F)cc1)c1ccc2ccccc2n1	23%
CC(Oc1ccc(Cl)cc1)C(=O)NCCN1C(=O)S/C(=C\c2cccnc2)C1=O (stereo not given)	u
Cc1ccc(C2CC(=O)NC(SCc3ccccc3)=C2C#N)cc1 (stereo not given)	1%
O=C(Cn1nc(-c2ccccc2)ccc1=O)NCCN1CCN(Cc2ccccc2)CC1	26%
COc1ccc2nc(N3C(=O)CC(C(C)c4ccccc4)C3=O)sc2c1 (stereo not given)	1%
O=C(O)c1ccc2c(c1)S(=O)(=O)N=C1CCCCCN12	0%
CCCOc1nnnn1-c1ccccc1	1%
OCCNCC(O)CN1c2ccccc2Sc2ccccc21 (stereo not given)	-11%
CC(C)(C)n1cn[nH]c1=S	-21%
Cc1cc(NC(=O)COC(=O)[C@@H](NS(=O)(=O)c2ccc(Br)cc2)C(C)C)no1	8%
CCN1CCc2c(OCC(=O)Nc3ccc(C)cc3)cccc2C1=O	-7%
COc1ccccc1CNC(=O)CSc1ncc2c(n1)-c1ccc(Cl)cc1N(Cc1ccccc1)S2(=O)=O	17%
CS(=O)(=O)N1CCN(c2ccccc2NC(=O)c2cccnc2)CC1	4%
NC(=O)c1cc(C(=O)c2ccc(Cl)cc2Cl)c[nH]1	5%
CCn1c(=O)c(C(=O)NNC(=O)c2ccccc2Cl)c(O)c2ccccc21	14%
COC(=O)c1cc(=O)n(-c2ccc(F)cc2)c(=Nc2ccc(F)cc2)s1	u
COc1ccccc1C(=O)NNC(=O)c1ccc(NC(=O)c2ccccc2)cc1	14%
COC(=O)c1c(NC(=O)c2ccccc2[N+](=O)[O-])sc2c1CC(C)(C)NC2(C)C	-16%
COCc1nnc(NC(=O)CC(c2ccccc2)c2ccccc2)s1	19%
COc1ccc(-c2csc(NC(=S)NC(=O)c3ccccc3)n2)cc1Br	6%
CCC(=O)c1ccc(OCC(=O)OCC(=O)Nc2sccc2C(N)=O)cc1	8%
CCOC(=O)C1=C(c2ccccc2)Nc2ncnn2C1c1ccc(OC)c(OC)c1OC (stereo not given)	11%
Cc1noc(C)c1S(=O)(=O)Nc1ccc2c(c1)C(=O)N([C@H](C)CO)C[C@H](C)[C@@H](CN(C)C(=O)Nc1ccc(C(F)(F)F)cc1)O2	17%
O=C(NCc1ccc(F)cc1)c1cc2cccc3c2n1CCS3	22%
COc1cc(/C=N/NC(N)=O)ccc1OC(=O)c1ccco1	-2%
Cn1c(=NC(=O)CSCC(=O)N2CCCCC2)sc2ccccc21	0%
CCSc1ncc(Cl)c(C(=O)N(Cc2ccccc2Cl)C2CCS(=O)(=O)C2)n1 (stereo not given)	15%
COc1cc(/C=N/n2cnnc2)ccc1OCCOc1ccccc1	-1%
O=C(OCC(=O)N1CCc2ccccc21)[C@@H]1CCCN1S(=O)(=O)c1ccccc1F	-6%
OCCCCCN=c1cc(-c2ccccc2)oc2ccc(Cl)cc12	0%
COc1cccc(CNC(=O)CSc2n[nH]c(-c3ccccc3Cl)n2)c1OC	15%
Cc1ccc(S(=O)(=O)N2CCCOC2CNC(=O)C(=O)NC2CCCCC2)cc1 (stereo not given)	-21%
COc1cc(N)c(Cl)cc1C(=O)OCC(=O)Nc1ccc(N2CCOCC2)cc1	-8%
O=C(CSc1nc(C(F)(F)F)cc(=O)[nH]1)Nc1cccc2ccccc12	8%
COc1cc(O)c(C(CCN2CCOCC2)c2ccc(N(C)C)cc2)c(OC)c1 (stereo not given)	7%&6%
COc1ccccc1C(=O)Nc1c(-c2ccccc2)nc2ccccn12	-12%
Cc1nc2c(sc3nc4c(cc32)COC(C)(C)C4)c(=O)n1CC(=O)NCc1ccco1	-7%
COc1ccc(C(=O)N2CCN(C3CCCCC3)CC2)c(OC)c1	5%
CCOC(=O)N1CCc2c(sc(NC(=O)CN(CC)CC)c2C#N)C1	-16%
CCC(C)[C@H](NC(=O)NC(C)C)C(=O)O (stereo not given in full)	2%
CCCC(CCC)c1nc2ccncc2[nH]1	-7%
CCOc1ccc(C2C(C(=O)Nc3ccccc3)=C(C)Nc3nc(SCc4cc(C)ccc4C)nn32)cc1 (stereo not given)	-4%
Cc1ccc(-n2nc(C)c3c(C)c(CCC(=O)O)c(C)nc32)cc1C	27%
CCCc1cc(=O)[nH]c(SCC(=O)Nc2c(C)n(C)n(-c3ccccc3)c2=O)n1	-9%
Fc1cccc(COc2ccccc2CNc2ccccc2)c1	-12%
CC(=O)c1cc(C#N)c(SCc2ccccc2C#N)nc1C	-2%
O=C(Nc1cccc(Cl)c1)c1cc(-c2ccc3c(c2)OCCO3)on1	8%
Cn1nnnc1NCc1cccc(Cl)c1	35%[activator]
Cc1ccc(S(=O)(=O)C2CS(=O)(=O)CC2O)cc1 (stereo not given)	22%

As a working copy, some entries already given:
SMILES	VDR inhibitor
O=c1c(Cc2ccc(F)cc2)c(O)ccn1C1CC1	-15%
CCCCCn1c(N2CCC(Cc3ccccc3)CC2)nc2c1c(=O)[nH]c(=O)n2C	-16%
Cc1ccc(SCC(=O)NCCN2C(=O)CSC2=O)cc1C	-15%
CC(=O)N1CC=CC1(C)C(=O)NCc1cc(F)cc(C(F)(F)F)c1 (stereo not given)	-14%
CCOC(=O)C1(Cc2cccc(OC)c2)CCN(C/C=C/c2ccc(OC)cc2)CC1	4%
CN(C)CCN(C(=O)c1ccc(S(=O)(=O)N2CCCC2)cc1)c1nc2ccc(Br)cc2s1	8%
CC(C)[C@@H](CC(=O)N[C@@H]1CCNC[C@H]1C(=O)N[C@H](CC(=O)N[C@@H](CCC(=O)O)CC(=O)O)Cc1c[nH]c2ccccc12)NC(=O)C[C@H](CO)NC(=O)[C@@H]1CNCC[C@H]1N	11%
CC(CS(=O)(=O)c1ccc2c(c1)NC(=O)CS2)C(=O)NCc1ccccc1Cl (stereo not given)	6%
CC(C)CNC(=O)c1c(-c2ccccc2)c(-c2ccccc2)nn(C)c1=O	15%
Cc1n[nH]c(=O)nc1NCc1ccc(Cl)cc1	9%
COc1ccc2oc(=O)c(C(=O)O)cc2c1	5%
O=C(Nc1ccc(OC(F)(F)F)cc1)c1ccc2ccccc2n1	23%
CC(Oc1ccc(Cl)cc1)C(=O)NCCN1C(=O)S/C(=C\c2cccnc2)C1=O (stereo not given)	u
Cc1ccc(C2CC(=O)NC(SCc3ccccc3)=C2C#N)cc1 (stereo not given)	1%
O=C(Cn1nc(-c2ccccc2)ccc1=O)NCCN1CCN(Cc2ccccc2)CC1	26%
COc1ccc2nc(N3C(=O)CC(C(C)c4ccccc4)C3=O)sc2c1 (stereo not given)	1%
O=C(O)c1ccc2c(c1)S(=O)(=O)N=C1CCCCCN12	0%
CCCOc1nnnn1-c1ccccc1	1%
OCCNCC(O)CN1c2ccccc2Sc2ccccc21 (stereo not given)	-11%
CC(C)(C)n1cn[nH]c1=S	-21%
Cc1cc(NC(=O)COC(=O)[C@@H](NS(=O)(=O)c2ccc(Br)cc2)C(C)C)no1	8%
CCN1CCc2c(OCC(=O)Nc3ccc(C)cc3)cccc2C1=O	-7%

Next section:
SMILES	VDR inhibitor
Cc1ccc2nc(NC(=O)C3CCN(S(=O)(=O)c4cccs4)CC3)sc2c1	4%
Cc1ccc(-n2ncc3c(Nc4cccc(C(F)(F)F)c4)ncnc32)cc1C	10%
CCC(CC)c1nc(C(N)=O)c2[nH]c(=O)n(-c3ccc(OC)c(OC)c3)c2n1	-5%
CC[C@]12c3[nH]c4ccc(Cl)cc4c3CCN1C(=O)[C@@H](CC(=O)NCc1ccco1)C[C@@H]2C(=O)N1CCN(C(=O)c2ccco2)CC1	-15%
Cc1ccc(NC(=O)CC2S/C(=N/N=C/c3ccco3)NC2=O)cc1Cl (stereo not given)	16%
CCOc1ccc(N(C(C)C(=O)NC(C)CC)S(C)(=O)=O)cc1 (stereo not given)	-6%
O=C(O)c1ccc(NCc2cccc(Br)c2)cc1	-8%
CCn1ncc(Cl)c1C(=O)NC(=S)Nc1ccccc1Br	-13%
O=C(CCCn1nnnc1CN1CCOCC1)N1CCN(c2ccccc2F)CC1	-7%
Cc1ccc(NC(=O)CN(C)S(=O)(=O)c2cccc3cccnc23)cc1C	-1%
Cn1nc(C(=O)NC2CCCCCC2)ccc1=O	-12%
Cc1cc(Br)c(NC(=O)CCl)c(Br)c1	9%
Cc1cc(Br)c(NC(=O)COn2nnc3ccc(S(C)(=O)=O)cc32)c(Br)c1	-15%
Cc1ccccc1-c1nc(CS(=O)CC(=O)NCc2ccccc2)c(C)o1 (stereo not given)	-16%
Cc1nnc(N2C(=O)C(=O)/C(=C(/O)c3ccc4c(c3)CC(C)O4)C2c2ccccc2F)s1 (stereo not given)	-7%
COc1ccc(/C=N/NC(=O)c2[nH]ncc2Br)c(OC)c1	-14%
O=c1[nH]cnc2cc(-c3ccc(Br)cc3)sc12	-17%
O=C1NC2(CCCCCC2)Cc2ccccc21	5%
Cc1cccc(CN(CC(=O)N/N=C/c2ccco2)S(=O)(=O)c2ccc(Cl)cc2)c1	7%
O=C(CSCc1ccc(Cl)cc1Cl)Nc1ccc(O)cc1C(=O)O	5%
CCOC(=O)C1=C(C)Nc2ncnn2C1c1cccnc1 (stereo not given)	-15%
CCOC(=O)[C@H](Cc1ccc(O)cc1)NC(=O)c1ccccc1	-1%
CCN(C(=O)c1cc(S(=O)(=O)N2CCc3ccccc32)cn1C)c1cccc(C)c1	3%
Cc1ccc(C(=O)Nc2nc(-c3nnn(-c4cccc(C(F)(F)F)c4)c3C)ns2)cc1	7%
CC1(C)C=C(c2ccc(C(=O)O)s2)CC(C)(C)N1	-2%
C=CCn1c(SCC(=O)N2CC(=O)Nc3ccccc32)nc2scc(-c3cccs3)c2c1=O	12%
COCC(=O)Nc1ccc2c(c1)OCC(=O)N2Cc1ccccc1F	0%
O=C(O)CN1C(=O)C(=O)N(Cc2ccc(Cl)c(Cl)c2)C1=O	12%
COc1ccc2cc(CN(CC3CCCO3)C(=O)Nc3ccccc3)c(=O)[nH]c2c1 (stereo not given)	-4%
Cc1cccc(Nc2nc(N)nc(CCl)n2)c1C	2%
O=C(CN1CCN(Cc2ccc3c(c2)OCO3)CC1)Nc1cc(S(=O)(=O)N2CCCC2)ccc1Cl	-8%
O=C1/C(=C/c2cccs2)SC(=S)N1CC(=O)N1CCCCC1CCO (stereo not given)	6%
O=c1[nH]c2ccccc2nc1NCCN1CCOCC1	-4%
O=S(=O)(c1cc(Cl)ccc1Cl)N1CCN2CCCC2C1 (stereo not given)	-10%
Cc1ccc([N+](=O)[O-])cc1NC(=S)NC(=O)CC(C)(C)C	-15%
COc1ccc(CCNC(=O)c2sc3cc(C)ccc3c2Cl)cc1	24%
Cc1cc(-c2nc3c4c5c(sc4[nH]c(=O)n3n2)CCC5)c(C)o1	-22%
COCc1cc(C)nc2sc3c(=O)n(-c4cc(C)ccc4C)nnc3c12	12%
COCCN1C(=O)c2cc(C(=O)Nc3cccc(F)c3)ccc2C1Nc1cccc(F)c1 (stereo not given)	-5%
CSc1sc(-c2ccnc(=S)[nH]2)c(-c2ccccc2)c1C#N	11%
O=C(Cn1cc([N+](=O)[O-])cn1)N1CCc2ccccc2C1	-10%
CCN(CC)CCn1c(=N)n(CC(=O)c2ccc(Br)s2)c2ccccc21	21%
COc1cccc(-n2c(SCC(=O)Nc3cc(C)ccc3C)nc3c(oc4ccccc43)c2=O)c1	-16%
CN(C)C(=O)Cn1cnc2c(cnn2-c2ccc(F)cc2)c1=O	-6%
